Screening data (PubChem)
TRPV1 potentiator – human TRPV1 potentiation; AID 540277; TRPV1-expressing cells, Fluo-8 calcium influx, capsaicin EC20 potentiation; host cell line not named in the record; control for the full effect not named in the record; potentiation, % at 8.33 µM; hit rate 0.02% among 320,000; Q8NER1; active means potentiation above 80%; inconclusive means 30% to 80%; inactive means below 30%; note: 0% is about no effect
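Fluo-8 calcium influx in TRPV1-expressing cells, kinetic read (ex 480/em 520 nm). Compound added and read 3 min for agonist activity, followed by capsaicin at EC20 final and 2 min further read for enhancement.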
TRPML1 inh – blocks the human TRPML1 channel; TRPML1-inducible cells, Ca2+ dye fluorescence, FDSS; stronger effect = lower value; inhibition of EC80 agonist-evoked calcium signal; activity change, negative = inhibition, % (concentration not given with the values); hit rate 0.02% among 390,000; in the data active means activity change below about -50%; inconclusive means about -30% to -50%; inactive means above about -30%;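 note: stimulus is agonist 54-4 at its EC80 concentration; % is set by controls: 0 for no effect and ±100 for the full control effect; compound concentration not given in the record; the text of the record puts the active cut at -80%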
Target sequence (Q9GZU1 whole entry, looked up): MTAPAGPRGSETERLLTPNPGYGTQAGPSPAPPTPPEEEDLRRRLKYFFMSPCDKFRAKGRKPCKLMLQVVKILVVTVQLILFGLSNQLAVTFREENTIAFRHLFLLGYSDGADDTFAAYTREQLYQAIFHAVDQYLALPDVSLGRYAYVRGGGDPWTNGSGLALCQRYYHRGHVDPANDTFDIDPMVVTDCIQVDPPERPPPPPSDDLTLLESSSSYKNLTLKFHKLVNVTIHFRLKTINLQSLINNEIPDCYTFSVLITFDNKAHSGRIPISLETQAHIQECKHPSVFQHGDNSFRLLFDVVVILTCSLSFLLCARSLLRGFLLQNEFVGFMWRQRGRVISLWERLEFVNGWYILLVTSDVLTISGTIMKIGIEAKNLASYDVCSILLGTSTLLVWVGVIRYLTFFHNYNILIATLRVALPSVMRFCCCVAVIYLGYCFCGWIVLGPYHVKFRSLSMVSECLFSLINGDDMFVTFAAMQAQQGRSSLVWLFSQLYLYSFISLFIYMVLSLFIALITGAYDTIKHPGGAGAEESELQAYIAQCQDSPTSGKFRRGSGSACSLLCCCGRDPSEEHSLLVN
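TRPML1-DL cells, Tet-induced overnight (~16 h, 37 °C) at 1,500 cells/well, were loaded with Ca8 no-wash dye plus quencher for 45-90 min at room temperature. Compounds were pinned during FDSS kinetic reading; agonist 54-4 at EC80 (4 uM final) then added.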
Menin-MLL FL inh – displaces fluorescein MLL peptide from human menin; FP activity change, % at 61.4 µM; Fluorescence polarization, fluorescein-MLL peptide displacement from menin; 290,000 tested, under 10 active; inconclusive = falling polarisation curve, or a change in total fluorescence; inactive = total fluorescence flat and polarisation flat or rising; no compound was filed as active; the % refers to the polarisation; negative = inhibition;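 note: % of control where 0% means no effect; inhibitors lower the polarisation; unlabelled MLL peptide was the positive control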
PINK1 expr mod – changes PINK1 expression | PINK1 immunofluorescence, high-content cytometry, 24 h | Potency, µM (titrated, usually from 76.6 µM), inactives show top-dose activation (PINK1 increase), actives largely listed as activators | hit rate 0.2% among 410,000 | AID 624263; active = well fitted activation curve with a large enough effect; inconclusive = small, poorly fitted or top-dose-only effect; inactive = flat fitted curve, though single readings scatter; cell line not stated here;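 note: potency is the fitted concentration of half-maximal effect; % of control where 0% means no effect; nearly all actives have a fitted effect of over 65% in size; a mitochondrial uncoupler was the plate control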
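Cells are seeded, rested 12 hours, then given compound at five concentrations or DMSO for 24 hours. After fixation, blocking and antibody staining, PINK1 amount and mitochondrial localization are scored; CCCP serves as control.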
TRPML1 ag – agonists of human TRPML1 channel | AID 624414 | hit rate 0.12% among 410,000 | Q9GZU1 | TRPML1-expressing cells, Ca2+ dye fluorescence, FDSS; host cell line not named in the record; reference of the full effect not given here | activation, % (no concentration beside the values); in the data active = activation above about 50%; inconclusive = about 30% to 50%; inactive = below about 30%; note: 0% is about no effect; the text of the record puts the active cut at 80%
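Kinetic FDSS Ca2+ read in Tet-induced TRPML1-DL cells (ABD Ca8 dye plus quencher, 45-90 min RT loading): baseline, then compound, then 110 s agonist window; EC80 agonist 54-4 at 4uM final added afterwards for a 110 s antagonist window.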
Sfp PPTase inh – inhibitors of Bacillus subtilis Sfp phosphopantetheinyl transferase | hit rate 3.5% among 310,000 | AID 1490 | Biochemical Sfp PPTase activity, qHTS | Q9F4F7 | Potency, µM, for the others: max response, negative = inhibition, actives largely listed as inhibitors; active = well fitted inhibition curve with a large enough effect; inconclusive = small, poorly fitted or top-dose-only effect, or another doubt; inactive = no such curve, though single readings can be large or run the other way;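 note: the enzyme is Sfp with the accession as filed and its product quenches rhodamine fluorescence; potency is the fitted concentration of half-maximal effect; 0% = enzyme reaction without inhibitor and -100% = no enzyme wells; top concentration of the series not given in the record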
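Buffer: 50 mM Hepes-Na pH 7.6, 10 mM MgCl2, 0.01% Nonidet P-40, 0.01% BSA. Enzyme 15 nM, pre-exposed to compound 15 min; substrates then added and fluorescence change tracked over 30 min.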
ClpP mod – qHTS Assay for Activators of ClpP | ATP-dependent Clp protease proteolytic subunit (Bacillus subtilis (strain 168)), P80244 | purified B. subtilis ClpP, FRET peptide cleavage, 20 min | Potency, µM (titrated, usually from 57.5 µM), for inactives: at the top dose activity change, negative = active | hit rate 1.9% among 340,000 | AID 651965, 2013; active = well fitted falling curve with a large enough effect; inconclusive = small, poorly fitted or top-dose-only effect; inactive = no such curve, though single readings can be large or run the other way; note: potency is the fitted concentration of half-maximal effect; the source files actives as falling curves though it sought activators and does not explain the sign; nearly all actives have a fitted effect of over 65% in size; many hits overshoot -100%
Target sequence (P80244 whole entry, looked up): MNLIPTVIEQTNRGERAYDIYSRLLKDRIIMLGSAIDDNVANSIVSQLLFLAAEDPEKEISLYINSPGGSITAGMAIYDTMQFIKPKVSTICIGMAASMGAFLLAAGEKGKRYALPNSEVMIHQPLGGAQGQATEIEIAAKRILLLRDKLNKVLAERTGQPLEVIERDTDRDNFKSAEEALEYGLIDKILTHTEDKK
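Buffer: 100 mM Tris/HCl pH8, 100 mM KCl, 0.05% low protease BSA, 2.5% glycerol, 0.01% Tween-20. ClpP 10 microg/mL final; 20 min RT; delta FRET normalized to ADEP and DMSO controls.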
* marks the source's active call; other numbers are inactive results; ? = inconclusive; · = no result given; & = joins results of further samples; [ ] = remark or other dose.

canonical_smiles,TRPV1 potentiator,TRPML1 inh,Menin-MLL FL inh,PINK1 expr mod,TRPML1 ag,Sfp PPTase inh,ClpP mod
CN(Cc1cnccn1)C(=O)CC1C(=O)NCCN1Cc1cccc(Oc2ccccc2)c1 (stereo not given),1,14,-6.4,0.2%,-0.4,20%,-4.3%
CCCCNC(=S)NC(=O)c1ccccc1Br,-7,26,2.8,2.1%,0.2,14%,0.3%
C/C=C1\COC(C(=O)NCc2ccccn2)(C(F)(F)F)C=C1C=C(C)C (stereo not given),·,15,-9.5,·,1.0,-5%,·
Cn1nnnc1SCC(=O)Nc1ncc(C(F)(F)F)cc1Cl,·,-1,·,1.5%,0.0,·,0.2%
COc1ccc(Cn2c3nc4ccccc4nc3c3c(=O)n(Cc4ccco4)c(C)nc32)cc1,-5,·,6.9,·,·,7.9µM*,·
CC1CN(C(=O)c2cc3cc(Cl)cc(Cl)c3oc2=O)CC(C)O1 (stereo not given),2,15,-1.5,0.2%,-1.0,10%,-4.5%
C=CCn1c(=O)c2ccccc2n2c(SC(C)C(N)=O)nnc12 (stereo not given),-41,18,-5.3,1.2%,0.0,3%,·
COc1ccc(S(=O)(=O)N2CCCCCC2)cc1C(=O)N(C)Cc1ccc(OC)c(OC)c1OC,-14,-8,·,2.2%,-0.3,·,1.1%
CC1CC(C)CN(CCCNC(=O)Cn2cccc2C(=O)c2ccccc2)C1 (stereo not given),-17,20,-3.6,-1.8%,-1.0,11%,-3.7%
O=C(/C=C/c1ccco1)Nc1cccc(C(=O)Nc2ccccc2C(=O)O)c1,1,23,21,-0.1%,2.5,56µM*,1.7%
Cc1ccc(C(=O)N2CCN(c3ccc(F)cc3)CC2)cc1NC(=O)c1nsc2ccccc12,·,-6,·,0.7%,1.5,·,-3.2%
O=C(Nc1ccc2oc(-c3ccncc3)nc2c1)c1ccc(F)cc1,-26,2,4.4,2.0%,-1.0,-6%,0.1%
COc1cc2c(cc1OC)C(c1ccc([N+](=O)[O-])cc1)NC(=O)C2 (stereo not given),1,·,2.1,0.0%,·,5%,1.1%
Cc1ccccc1C(=O)Nc1ccc(N2CCCCCC2)cc1,-10,-1,1.1,0.7%,0.7,-8%,·
CCc1cccc(NC(=O)C2CCN(S(=O)(=O)c3cccs3)CC2)c1,-8,22,1.9,7.3%[38.3 µM],0.2,13%,2.3%
O=C(CN1CCN(c2ccccc2O)CC1)NCCCc1ccccc1,2,21,1.2,-0.8%,0.0,-1%,·
O=C(Nc1ccc(-c2nnn(CC(=O)N3CCN(C(=O)c4ccco4)CC3)n2)cc1)c1ccccc1F,-11,·,3.8,·,·,-3%,·
COc1cc2c(cc1OC)C(C)N(S(=O)(=O)c1ccc(C)cc1)CC2 (stereo not given),-7,35,-1.8,0.9%,0.6,3%,1.3%
CC(C)(C)CC(=O)NC(=S)NCc1ccccc1,-20,?,-1.0,4.3%,0.2,17%,2.4%
O=C(NCCc1csc(-c2ccccc2)n1)c1c(F)cccc1F,-24,-3,-4.1,1.7%,-0.1,19%,-1.8%
Cc1nc2ccc(S(=O)(=O)NC(C(=O)NCc3ccc(Cl)cc3)C(C)C)cc2s1 (stereo not given),·,-27,·,5.4%,-1.0,·,2.5%
COc1ccc(N2C(=O)CCC2=O)cc1,-23,10,0.9,1.1%,0.1,3%,1.2%
CC(C(=O)Nc1ccc(OC(F)(F)F)cc1)N1Cc2ccccc2C1=O (stereo not given),·,8,·,0.1%,2.0,·,-2.5%
CC(NC(=O)CCl)c1ccc(Cl)c(Cl)c1 (stereo not given),-23,2,0.7,-5.5%,-0.1,12%,-2.0%
O=C(CSc1nc2ccccc2c(=O)[nH]1)N1CCCCC1,15,-5,3.7,-0.3%,-0.3,-11%,-7.9%
O=C(Cc1ccc(Cl)c(Cl)c1)Nc1ccc(S(=O)(=O)Nc2ncccn2)cc1,18,-18,7.4,3.7%,-1.2,-5%,-0.2%
N=C1SCC(=O)N1c1ncc(Cc2ccccc2Cl)s1,-5,39,-4.6,0.6%,0.3,4%,·
CC(=O)NC12CC3CC(C1)CC(C(=O)N1CCN(S(=O)(=O)c4ccccc4C#N)CC1)(C3)C2,·,9,·,4.5%,-0.6,·,·
CC(C)(C)c1ccc(-c2nnc3sc(-c4ccccn4)nn23)cc1,·,0,-0.8,7.3%,-0.3,45µM*,2.7%
COC(=O)c1ccc(Cn2cc(Cl)cn2)o1,·,-17,4.7,-0.7%,0.3,9%,·
Cc1ccc(OCc2nc3ccccc3n2C)cc1,-24,17,-0.5,1.7%,1.2,17%,1.5%
Cn1c(=S)[nH]c2[nH]c(=O)cnc2c1=O,13,-5,9.1,1.6%,0.1,?,-9.5%
O=C(COc1ccc(Br)cc1)N(CCO)CCO,2,5,-2.6,2.3%,0.8,11%,-12%
Cc1ccc(S(=O)(=O)N2CCOCC2)cc1C(=O)N1C(=O)c2cccc(N)c2C1=O,20,10,?,-1.4%,-0.1,-5%,26%
CC(=O)Nc1ccc(NC(=O)CSC2=NS(=O)(=O)c3cc(Cl)ccc3N2)cc1,22,0,·,3.1%,-0.3,·,-23%
CCOC(=O)c1c(NC(=O)c2ccccc2Cl)sc2c1CCc1ccccc1-2,6,-12,2.5,3.8%,-0.8,11µM*,·
Cc1cc(NC(=O)c2ccc(-c3ccccc3[N+](=O)[O-])o2)no1,·,40,·,-0.7%,0.6,·,-0.4%
N#Cc1ccc(OCc2nnc(-c3ccc([N+](=O)[O-])cc3)o2)cc1,5,10,3.2,-0.8%,0.1,8%,·
CCOC(=O)N1CCN(CC(O)COc2ccccc2C(C)(C)C)CC1 (stereo not given),-19,5,-1.2,2.8%,-0.1,5%,1.4%
CN(Cc1nc2ccccc2c(=O)[nH]1)C(=O)c1cccc(NC(=O)c2cccs2)c1,·,-23,·,-0.4%,-0.3,·,-2.3%
CN(Cc1nc(-c2cccc(Cl)c2)no1)C1CCOCC1,-7,-5,-1.1,0.9%,0.3,10%,1.7%
O=C(O)CC(Cc1ccc(Cl)cc1)C(=O)NCC12CC3CC(CC(C3)C1)C2 (stereo not given),10,51,7.0,-0.2%,-0.5,12%,1.1%
CCOc1ccc(NC(=S)NC(=O)/C=C/c2ccco2)cc1,-3,7,13,4.1%,1.0,9%,-3.3%
COc1ccc(C(C)(NC(C)=O)c2nc(-c3cc(F)cc(F)c3)cs2)cc1 (stereo not given),·,·,·,0.7%,-0.9,·,0.4%
O=C(O)CCc1nn2c3ccccc3n(CC(=O)O)c2nc1=O,-15,-18,0.0,-4.0%,1.5,-2%,·
Cc1ccc(Cl)cc1NC(=O)COC(=O)c1ccc(CN2CCCC2=O)cc1,3,-1,·,2.2%,1.9,·,-2.6%
C[C@H](O)C#Cc1ccc2c(c1)O[C@@H](CN(C)C(=O)c1ccncc1)[C@@H](C)CN([C@H](C)CO)S2(=O)=O,·,22,·,-1.2%,1.1,·,-3.0%
O=[N+]([O-])c1ccc(CNc2cccc(Cl)c2)s1,6,-17,-1.4,7.2%,-0.4,-2%,-0.9%
O=C(O)C(c1ccccc1)C(O)c1ccc2c(c1)OCO2 (stereo not given),·,-24,·,1.4%,1.0,·,·
CC(C)Sc1ccccc1C(=O)Nc1ccc2c(c1)n(C)c(=O)n2C,5,-22,0.2,7.4%,0.7,-7%,-1.2%
CC1(c2ccc3c(c2)OCO3)NC(=O)N(CC(=O)NCCC2=CCCCC2)C1=O (stereo not given),-12,-7,5.7,-1.5%,-0.1,10%,0.7%
CCn1cc(C(=O)O)c(=O)c2cc(OC)ccc21,2,35,-2.3,0.0%[38.3 µM],-0.4,-1%,32µM*
COc1cccc(C(C)(O)c2nc(-c3ccc(S(C)(=O)=O)cc3)cs2)c1 (stereo not given),·,·,·,-0.9%,-0.5,·,3.3%
CCOC(=O)CN(C(=O)CNC(=O)c1ccco1)C(C(=O)NC1CCCCC1)c1cccs1 (stereo not given),9,-6,-2.3,-1.7%,0.5,?,0.5%
O=c1cc(-c2ccccc2Cl)oc2c(Br)ccc(O)c12,-8,11,3.9[94.6 µM],-0.3%,0.8,11%&-10%,2.6%
COc1ccc(NC(=O)COC(=O)Cc2cccs2)cc1Cl,·,22,·,2.0%,-1.0,·,-2.0%
O=C(NN=Cc1ccc2c(c1)OCO2)c1ccncc1,·,8,·,1.4%,0.3,·,0.0%
CCCS(=O)(=O)c1c(S(=O)(=O)CCC)c2ccc(C(N)=O)cn2c1C(=O)c1ccc(OC)cc1,11,9,0.0,2.2%,0.5,14%,·
O=C(Nc1ccc(Cl)cc1)C1=Cc2ccccc2OC1,-15,4,-2.1,-0.4%,0.0,?,-1.8%
O=C(CCSc1nnc(-c2ccncc2)o1)Nc1ccc(Cl)cc1,-3,2,1.9,0.3%,-1.1,-2%,-5.3%

More results follow:
canonical_smiles,TRPV1 potentiator,TRPML1 inh,Menin-MLL FL inh,PINK1 expr mod,TRPML1 ag,Sfp PPTase inh,ClpP mod
COc1ccc(-c2nc(=S)c3c(n2Cc2cccnc2)CC(C)(C)OC3)cc1,5,-6,0.8,-0.1%,0.9,18%,·
COc1cccc(-c2nc(SCc3ccc(C)cc3)n3[nH]c(=O)cc3n2)c1,·,14,·,0.9%,0.1,·,-0.2%
N#Cc1ccc(-c2ccccc2)nc1SCC(=O)c1cccc(Cl)c1,8,9,?,3.8%,0.5,11%,11%
CN(C)CCNC(=O)c1ccc(COc2ccc(Cl)cc2Cl)cc1,5,20,-1.7,20%[38.3 µM],0.1,?,0.1%
CCCNC(=O)c1ccc2c(=O)c(O)c(-c3cccc(Br)c3)[nH]c2c1,?,-4,?,-1.2%,1.5,-15%,-6.9%
CCN(CCCNC(=O)C1CCC(=O)N1Cc1ccc(F)cc1)c1cccc(C)c1 (stereo not given),-1,15,0.0,1.7%,0.5,11%,-0.5%
